Source: PubChem (National Center for Advancing Translational Sciences (NCATS))
VDR inhibitor = inhibitors of human vitamin D receptor. hit rate 0.93% among 400,000. VDR-SRC2-3 peptide fluorescence polarization, 2 h. Potency, µM, inactives show max response, negative = inhibition, most hits filed as inhibitors. P11473; active means well fitted inhibition curve with a large enough effect; inconclusive means small, poorly fitted or top-dose-only effect, or another doubt; inactive means no such curve, though single readings can be large or run the other way; further: series mostly up to about 120 µM
Target sequence (P11473 whole entry, looked up): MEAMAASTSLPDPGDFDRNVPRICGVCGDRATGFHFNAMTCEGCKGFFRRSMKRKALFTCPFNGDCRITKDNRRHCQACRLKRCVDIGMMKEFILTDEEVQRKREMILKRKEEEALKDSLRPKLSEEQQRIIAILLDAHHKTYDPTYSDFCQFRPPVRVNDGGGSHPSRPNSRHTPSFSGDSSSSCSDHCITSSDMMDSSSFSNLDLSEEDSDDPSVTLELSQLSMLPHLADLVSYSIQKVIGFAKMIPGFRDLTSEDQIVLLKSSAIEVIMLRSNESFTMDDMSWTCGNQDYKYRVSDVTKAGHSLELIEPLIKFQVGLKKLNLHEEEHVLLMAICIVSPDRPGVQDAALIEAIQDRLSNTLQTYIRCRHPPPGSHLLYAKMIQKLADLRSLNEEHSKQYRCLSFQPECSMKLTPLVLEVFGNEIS
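The screen uses fluorescence polarization to detect compounds that interfere with recruitment of the SRC2-3 coactivator peptide to VDR; plates are read after 2 h at room temperature.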
Numbers without * were called inactive; ? = inconclusive; & = joins results of further samples. On the % scale 0 is the no-effect control and ±100 the full control effect; potency means the concentration at half of the fitted maximal effect. Only part of the results is shown; count on the stated rates, not on these rows.

SMILES	VDR inhibitor
O=C(Nc1ccon1)c1ccc(N2CCCCC2)c([N+](=O)[O-])c1	-15%
COCCCN1C(=O)C(O)=C(C(C)=O)C1c1ccccn1 (configuration not stated)	-6%
N/C(=N\OC(=O)c1ccco1)c1ccccc1	2%
Cc1ccc(/C=C/C(=O)OC(C)C(=O)NC2CCCCC2C)o1 (configuration not stated)	-4%
CCOc1ccc(CCNC(=O)Cn2nc(CC)n3c(cc4sc(CC)cc43)c2=O)cc1OCC	7%
CN(C)S(=O)(=O)c1cccc(NC(=O)c2ccc3nccnc3c2)c1	12%
O=C(COC(=O)c1cc(F)cc(F)c1)NCCCc1ccccc1	2%
c1ccc(CCSc2ncnc3nc[nH]c23)cc1	-9%
COc1cc(O)c(C(CCN2CCCC2)c2ccc3c(c2)OCO3)c(OC)c1 (configuration not stated)	-19%&-7%
CC(=O)N1CCc2cc(S(=O)(=O)CCC(=O)N3CCc4ccccc4C3)ccc21	1%
Cc1ccc(S(=O)(=O)c2c(Nc3cccc(Cl)c3)sc(C(=O)c3ccc4c(c3)OCO4)c2N)cc1	13%
O=C(Nc1nnc(Cc2ccc(Cl)cc2)s1)C1CCCO1 (configuration not stated)	-7%
CCCCNC(=O)CCC(=O)Nc1ccc2nc(N3CCN(C)CC3)cc(C)c2c1	4%
Cc1ccc(C)c(N2CCN(C(=O)c3cc(S(=O)(=O)N4CCCC4)c[nH]3)CC2)c1	10%
CCN(CC)S(=O)(=O)c1ccc(C)c(NC(=O)CSc2nc3ccc(C)cc3[nH]2)c1	0%
CCc1ccc(-n2c(=O)c3c(C)c(C(=O)N(C)C)sc3n(CC(=O)Nc3cc(Cl)ccc3C)c2=O)cc1	-7%
NC(=O)c1cc2ccccc2o/c1=N\NC(=O)c1ccccc1O	-2%
O=C(CNC(=S)N(CCCN1CCOCC1)Cc1cccs1)N1CCCCCC1	16%
COC(=O)Cn1c(=NC(=O)CSCC(=O)Nc2cc(C)on2)sc2ccccc21	-9%
CNC(=O)c1c(NC(=O)C2=COCCO2)sc2c1CCC(C)C2 (configuration not stated)	-12%
O=C(Nc1ccccc1)c1cc2ccccc2s1	-17%
Cn1c(=N)n(CC(O)c2ccco2)c2ccccc21 (configuration not stated)	2%
CCn1cc(C(=O)NCCc2ccc(C)cc2)c(=O)c2cc(S(=O)(=O)N3CCCCC3)ccc21	-26%
Cc1cccc(NC(=O)c2nc[nH]c2C(=O)NCCCCNC(=O)c2[nH]cnc2C(=O)Nc2cccc(C)c2)c1	-14%
O=C1N[C@@H](Cc2ccccc2)COC(=O)[C@H](Cc2ccc(F)cc2)C/C=C\C[C@@H]1CC(=O)N(CCO)Cc1ccccc1	-26%
Cc1cc(-c2ccc(C)c(S(=O)(=O)N3CCCC(C)C3)c2)on1 (configuration not stated)	4%
CC(=O)N1CCN(c2ccccc2NC(=O)c2ccco2)CC1	18%
Cc1c(NS(=O)(=O)c2cc(C(=O)NCc3cccc(Cl)c3)ccc2Cl)c(=O)n(-c2ccccc2)n1C	3%
COc1ccc(CNc2oc(C)nc2C#N)cc1	10%
COc1ccc(Cl)cc1N=Cc1c(O)c2ccccc2oc1=O	-2%

3 of these compounds in another layout.
VDR inhibitor	structure
-26%	O=C1N[C@@H](Cc2ccccc2)COC(=O)[C@H](Cc2ccc(F)cc2)C/C=C\C[C@@H]1CC(=O)N(CCO)Cc1ccccc1
4%	Cc1cc(-c2ccc(C)c(S(=O)(=O)N3CCCC(C)C3)c2)on1 (configuration not stated)
18%	CC(=O)N1CCN(c2ccccc2NC(=O)c2ccco2)CC1

Continuation:
SMILES	VDR inhibitor
O=C(NCc1ccc2c(c1)OCO2)c1c(-c2ccsc2)sc2ccccc12	?
O=C(CSc1nnnn1C1CCCCC1)N1CCN(C(=O)c2ccco2)CC1	-18%
O=C(CSc1nnc(-c2ccco2)n1-c1ccccc1)NCC1CCCO1 (configuration not stated)	-5%
O=C(Nc1cccc(C(=O)O)c1)/C(=C/c1ccc([N+](=O)[O-])cc1)NC(=O)c1ccccc1	-27%
CC(=O)N(\C=C/C=C/C=C1\Sc2ccccc2C1=O)c1ccccc1	?
O=C(Nc1cc(NC(=O)c2ccccc2Cl)ccc1Cl)c1ccccc1	-10%
CCCc1ccc(-c2ccc(/C=C/C(=O)O)cc2)nc1	-13%
O=C(CCCc1ccccc1)N1CCN(C2CCCCC2)CC1	-6%
CC(C)(C)NC(=O)NC(=O)COC(=O)c1cccc(F)c1	4%
CC=CC1OCC(CC)C(CCC)O1 (configuration not stated)	17%
COc1cccc(CN(C)CC(=O)NCc2ccc(C)cc2)c1	0%
Cc1ccc(C)c(SCC(=O)OCC(=O)c2ccco2)c1	2%
CCn1c(=O)n(CC)c2cc(N3CCCC3)c(NC(=O)c3ccccc3OC)cc21	4%
CN(C(=O)c1cccc(NC(=O)Cc2cccc(NC(=O)C3CCN(C(=O)c4ccccc4)CC3)c2)c1)C1CC1	-12%
CCOC(=O)c1sc(NC(=O)c2cc3n(n2)C(C(F)(F)F)CC(c2ccccc2)N3)c(C(=O)OCC)c1C (configuration not stated)	17%
O=C(c1cccc(F)c1)N1CCC2(CCCN(c3ccccn3)C2)CC1	?
COc1cc2c(cc1O)C(Cc1ccc(O)cc1)[N+](C)([O-])CC2 (configuration not stated)	-9%
O=C(NCCC1=CCCCC1)C(=O)NCC(c1ccco1)N1CCN(c2ccccc2)CC1 (configuration not stated)	-10%
Cc1ccc(S(=O)(=O)N2CCN(CC(=O)N/N=C/c3ccc(C)o3)CC2)cc1	-22%
CCN1CCN(c2cc(C)c3cc(NC(=S)N4CCOCC4)ccc3n2)CC1	-4%
Cc1cccc(OCC(=O)NNC(=O)c2ccc([N+](=O)[O-])cc2)c1	2%
O=C(Nc1nc2ccccc2[nH]1)C12CC3CC(CC(C3)C1)C2	4%
O=C(CN(CCc1ccccc1)C(=O)CNS(=O)(=O)c1ccccc1)NCC1CCCO1 (configuration not stated)	2%
Cc1cc(NC(=O)CSc2nc3ccccc3n2CCC#N)no1	-9%
CCC(C)NC(=O)c1ccc2c(c1)N(Cc1cccc(Cl)c1)C(=O)c1ccccc1S2=O (configuration not stated)	13%
CCOC(=O)N1CCc2[nH]c3ccc(C)cc3c2C1	?
Cc1ccc(C(=O)NNC(=O)Cc2cccs2)cc1	-26%
CC(C)(C)SC(=O)C[C@@H]1NS(=O)(=O)OC2CCCCC21 (some centres not stated)	-13%
COc1ccc(Cl)cc1NC(=O)COC(=O)/C=C/c1c(C)nn(C2CCS(=O)(=O)C2)c1Cl (configuration not stated)	5%
O=C(NCC1CCCO1)C(=O)NCC1CCCN1S(=O)(=O)c1ccccc1 (configuration not stated)	1%
C/C(=N/NC(=O)CNC(=O)c1ccccc1F)c1ccc2c(c1)CCCC2	-5%
CCN(CC)C(=O)c1cccc(NC(=O)c2ccc3c(=O)n4c(nc3c2)CCC4)c1	?
COc1ccccc1C(C)NS(=O)(=O)c1ccc(Cl)nc1 (configuration not stated)	-9%
CCN(CC)Cc1c(-c2ccccc2)[nH]c2ccc(C)cc2c1=O	-5%
COC(=O)N1C(=O)[C@](c2ccc(Cl)cc2)(C(C)C)N1C(=O)OC	?
Cc1cc(C)nc(NC(=NCCc2c[nH]c3ccccc23)NC(=O)Nc2ccc(Cl)c(Cl)c2)n1	6%
CCS(=O)(=O)Nc1ccc(C2=NN(S(C)(=O)=O)C(c3cccs3)C2)cc1 (configuration not stated)	-9%
N#Cc1c(C(F)(F)F)cc(-c2ccccc2)nc1SCC(=O)Nc1sc2c(c1C#N)CCC2	-4%
Nc1cc(=O)[nH]c(=O)n1Cc1ccco1	-19%
CN1C(=O)CC(N2CCN(C(c3ccccc3)c3ccccc3)CC2)C1=O (configuration not stated)	-2%
O=C(CNC(=O)c1cccs1)NC1=NCCS1	14%
CCOc1ccc(NC(=O)CNC(=O)c2nn(-c3ccc(OC)cc3)c(=O)c3ccccc23)cc1	6%
Cc1cc(N2C(=O)C3C4C=CC(C4)C3C2=O)ccc1Br (configuration not stated)	16%
COCCNc1nc2nonc2nc1N1CCCC1c1nccs1 (configuration not stated)	9%
NS(=O)(=O)c1ccc(NCc2c(F)cccc2Cl)cc1	8%
CC(Oc1ccccc1)C(=O)Nc1nc(-c2ccccn2)cs1 (configuration not stated)	7%
O=c1[nH]c(N2CCCCCC2)nc2ncn(Cc3ccccc3)c12	-18%
CC1CN(C2CCCCC2)c2nc3c(c(=O)n(C)c(=O)n3C)n2C1 (configuration not stated)	1%
COC(=O)CSc1ccc2nnc(CCNS(=O)(=O)c3ccccc3)n2n1	-12%&-3%
COn1c(-c2ccccc2)nc2ccc(Cl)cc21	-8%
More compounds.
SMILES	VDR inhibitor
Cn1c(C(=O)NCc2ccccc2F)cc2cc(S(=O)(=O)N3CCCCC3)ccc21	3%
Cc1ccn(C(=O)c2ccc(NC(=O)CC(C)C)cc2)n1	12%
COc1cc(C(Nc2ccc(S(=O)(=O)N3CCC(C)CC3)cc2)C(=O)NCC2CCCO2)cc(OC)c1OC (configuration not stated)	-2%
CCOc1cc2[nH]c(=S)n(CCCC(=O)NCc3ccccn3)c(=O)c2cc1OCC	-2%
COc1ccc(NS(=O)(=O)c2cccc(C(=O)NCc3ccccn3)c2)cc1	2%
N#C/C(=C/c1ccc(-c2ccc(Br)cc2)o1)C(=O)NC1CCCCC1	-14%
Cc1cccn2c(=O)c(C=O)c(NCc3ccccc3)nc12	-16%
COC(=O)[C@]1(Cc2ccccc2)N[C@H](CN(C)S(=O)(=O)c2ccc(C)cc2)[C@@H]2C(=O)N(Cc3ccccc3)C(=O)[C@@H]21	6%
CCOc1ccc(S(=O)(=O)N2CCN(Cc3ccc4c(c3)OCO4)CC2)cc1Cl	-11%
Cc1c(NS(=O)(=O)c2ccc(C(C)(C)C)cc2)c(=O)n(-c2ccccc2)n1C	6%
O=C(CSc1nc2ccccc2o1)Nc1ccc(N2CCOCC2)c(Cl)c1	-1%
O=[N+]([O-])c1ccc(N2CCN(c3ccccc3Cl)CC2)cn1	0%
CCN(Cc1ccccc1)S(=O)(=O)c1ccc2[nH]c3c(c2c1)CCCCC3	1%
COC(=O)CC1(c2cccc3ccccc23)C(=O)c2ccccc2C1=O	10%
CCNC(=S)NNC(=O)CSc1nc2ccccc2n1C	-12%
COc1ccc(C(=O)NCc2nnc(SCC(=O)Nc3ccc(C)cc3)n2-c2ccccc2)cc1	-11%

Of the compounds above, these have a halogen:
SMILES	VDR inhibitor
O=C(COC(=O)c1cc(F)cc(F)c1)NCCCc1ccccc1	2%
Cc1ccc(S(=O)(=O)c2c(Nc3cccc(Cl)c3)sc(C(=O)c3ccc4c(c3)OCO4)c2N)cc1	13%
O=C(Nc1nnc(Cc2ccc(Cl)cc2)s1)C1CCCO1 (configuration not stated)	-7%
CCc1ccc(-n2c(=O)c3c(C)c(C(=O)N(C)C)sc3n(CC(=O)Nc3cc(Cl)ccc3C)c2=O)cc1	-7%
O=C1N[C@@H](Cc2ccccc2)COC(=O)[C@H](Cc2ccc(F)cc2)C/C=C\C[C@@H]1CC(=O)N(CCO)Cc1ccccc1	-26%
Cc1c(NS(=O)(=O)c2cc(C(=O)NCc3cccc(Cl)c3)ccc2Cl)c(=O)n(-c2ccccc2)n1C	3%
COc1ccc(Cl)cc1N=Cc1c(O)c2ccccc2oc1=O	-2%
O=C(Nc1cc(NC(=O)c2ccccc2Cl)ccc1Cl)c1ccccc1	-10%
CC(C)(C)NC(=O)NC(=O)COC(=O)c1cccc(F)c1	4%
CCOC(=O)c1sc(NC(=O)c2cc3n(n2)C(C(F)(F)F)CC(c2ccccc2)N3)c(C(=O)OCC)c1C (configuration not stated)	17%
O=C(c1cccc(F)c1)N1CCC2(CCCN(c3ccccn3)C2)CC1	?
CCC(C)NC(=O)c1ccc2c(c1)N(Cc1cccc(Cl)c1)C(=O)c1ccccc1S2=O (configuration not stated)	13%
COc1ccc(Cl)cc1NC(=O)COC(=O)/C=C/c1c(C)nn(C2CCS(=O)(=O)C2)c1Cl (configuration not stated)	5%
C/C(=N/NC(=O)CNC(=O)c1ccccc1F)c1ccc2c(c1)CCCC2	-5%
COc1ccccc1C(C)NS(=O)(=O)c1ccc(Cl)nc1 (configuration not stated)	-9%
COC(=O)N1C(=O)[C@](c2ccc(Cl)cc2)(C(C)C)N1C(=O)OC	?
Cc1cc(C)nc(NC(=NCCc2c[nH]c3ccccc23)NC(=O)Nc2ccc(Cl)c(Cl)c2)n1	6%
N#Cc1c(C(F)(F)F)cc(-c2ccccc2)nc1SCC(=O)Nc1sc2c(c1C#N)CCC2	-4%
Cc1cc(N2C(=O)C3C4C=CC(C4)C3C2=O)ccc1Br (configuration not stated)	16%
NS(=O)(=O)c1ccc(NCc2c(F)cccc2Cl)cc1	8%
COn1c(-c2ccccc2)nc2ccc(Cl)cc21	-8%
Cn1c(C(=O)NCc2ccccc2F)cc2cc(S(=O)(=O)N3CCCCC3)ccc21	3%
N#C/C(=C/c1ccc(-c2ccc(Br)cc2)o1)C(=O)NC1CCCCC1	-14%
CCOc1ccc(S(=O)(=O)N2CCN(Cc3ccc4c(c3)OCO4)CC2)cc1Cl	-11%
O=C(CSc1nc2ccccc2o1)Nc1ccc(N2CCOCC2)c(Cl)c1	-1%
O=[N+]([O-])c1ccc(N2CCN(c3ccccc3Cl)CC2)cn1	0%
